MgrA DNA FP – alters Staphylococcus aureus MgrA binding to DNA. inhibition, %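 (about 10 µg/mL by stock and volumes)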. AID 602314. fluorescence polarization. 0.13% of 84,000 active;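 active means above 50% in either of two replicates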;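 further: 0% = protein plus DNA without compound and 100% = DNA alone without protein; higher means less MgrA bound to DNA so lower polarization; one replicate is shown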
S aureus helic – blocks Staphylococcus aureus DNA helicase; purified S. aureus helicase, fluorescence unwinding assay; about half of the hits fall short of the stated cut; inhibition, %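 (tested at about 80 µM)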; 0.05% of 120,000 active;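 active means both duplicates at 50% or more, or one of them with a favoured structure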;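 further: 0% = mean of negative control wells and 100% = mean of positive control wells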
Active calls of the source: *; . = not tested or not shown; & = joins results of further samples. Some of the compounds tested; rates above refer to the full screens.

Molecule | MgrA DNA FP | S aureus helic
CCC(C(=O)NCc1cccnc1)c1ccccc1 (stereo not drawn) | -2.6 | 9.0
CC1=CC(C)C2(COC(=O)Nc3ccccc3)COC(c3cccnc3)C1C2C (stereo not drawn) | 3.5 | 10.0
OC(Cc1nc2ccccc2[nH]1)c1nc2ccccc2[nH]1 (stereo not drawn) | 0.8 | -2.0
CSc1nc2ccc(NC(=O)C3=COCCO3)cc2s1 | . | 10.0
CN(C(=S)NCc1ccco1)c1ccccc1 | . | -16.0
c1nc(N2CCCC2)c2ccsc2n1 | -0.8 | .
O=C(CN1C(=O)S/C(=C/c2ccc(Cl)cc2)C1=O)NC1CCCCC1 | -0.1 | 9.0
CN(C(=O)COc1ccc2ccc(=O)oc2c1)C1CCCCC1 | 2.8 | -45.0
Cc1c(OCC(=O)O)ccc2c(-c3ccccc3)cc(=O)oc12 | 1.7 | -23.0
CN(C)c1ccc(Nc2cccc3nonc23)cc1 | -1.1 | 11.0
COC(CNC(=O)/C=C1\Sc2ccccc2NC1=O)OC | -0.8 | 2.0
CC(=O)N(/N=C1\Sc2ccccc2C1=O)c1ccccc1 | 0.3 | 3.0
c1ccc(Nc2cn[nH]n2)cc1 | -1.5 | -5.0
Cc1ccc(C(=O)NC2CCCCCCC2)cc1S(=O)(=O)N1CCOCC1 | . | 5.0
COC(=O)CCS(=O)(=O)c1ccc(Cl)c(Cl)c1 | . | 9.0
COc1cc(CNc2ccccc2)ccc1OCC(N)=O | . | -7.0
CCCn1c(SCc2csc(NC(C)=O)n2)n[nH]c1=O | . | -9.0
Cc1cc(-n2nc3ccccc3n2)c2oc(SCC(=O)NC(C)(C)C)nc2c1 | -3.6 | 6.0
O=C1CCSc2c1cccc2C(=O)Nc1ccccc1F | . | 30.0
O=C(O)CC1(CC(=O)NCc2ccc3c(c2)OCO3)CCCCC1 | -0.8 | 7.0
Cc1oc2ccc(O)cc2c1C(=O)O | -9.9 | -2.0
Cc1ccccc1NC(=O)Cc1nc(COC(=O)c2nccnc2N)cs1 | . | -5.0
NC(=O)c1ccccc1N=Cc1ccc2ccccc2c1 | -2.2 | 14.0
O=C(NCCCn1ccnc1)c1cn(-c2ccccc2)nc1-c1ccccc1 | 1.9 | -19.0
CCC(SC1=N/C(=C\c2cccnc2)C(=O)N1c1ccccc1)C(=O)N1CCOCC1 (stereo not drawn) | . | -29.0
COc1ccc(Cn2cc[nH]c(=O)c2=O)cc1 | 1.0 | 6.0
CC(NC(=O)c1ccc2c(c1)OCO2)c1ccccc1 (stereo not drawn) | -1.4 | 12.0
c1cc(-c2nc3ccccc3o2)cc(-c2nc3ccccc3o2)c1 | . | 10.0
CCCCC1(O)CC(C)N(C)CC1C (stereo not drawn) | -2.7 | 6.0
CC(C)(C)C(=O)OC[n+]1ccccc1 | -4.8 | -4.0
CC(=O)Nc1ccc(S(=O)(=O)n2nccc2-c2ccc(-c3cccs3)s2)cc1 | -1.1 | .
CCCSc1ncccc1C(=O)NCc1ccc2c(c1)OCO2 | -1.9 | .
Cn1c(C2CCS(=O)(=O)C2)n[nH]c1=S (stereo not drawn) | . | -8.0
N#Cc1ccc(S(=O)(=O)NC2CCN(Cc3ccccc3)CC2)cc1 | -1.9 | .
O=C(NC1=NCCS1)c1ccc(S(=O)(=O)N2CCCCCC2)cc1 | . | 12.0
O=C(CN(C1CCCCC1)S(=O)(=O)c1ccccc1)N1CCCCC1 | 1.8 | 24.0
CCN(CCS(=O)(=O)c1ccc(Cl)cc1)C(=O)Nc1ccc(Cl)cc1 | -1.4 | .
Cc1sc(Nc2ccccc2)nc1-c1ccc(Cl)cc1 | -1.7 | -1.0
CCC1CSC(Nc2ccc(C)cc2)=N1 (stereo not drawn) | . | 16.0
CC1CCN(C(=O)COC(=O)c2ccc(NC(=O)CC3SC(N4CCCC4)=NC3=O)cc2)CC1 (stereo not drawn) | . | -8.0
Cc1onc(-c2ccccc2)c1C(=O)NCCOc1ccccc1 | -2.5 | .
COc1ccc(CNC(=O)CSc2nc3ccc([N+](=O)[O-])cc3[nH]2)cc1 | -2.4 | .
N#CC(C#N)=C1CCCN1C(=O)c1ccccc1 | . | -9.0
O=C(NCCN1CCCC1)C1c2ccccc2Oc2ccccc21 | -1.1 | 0.0
O=c1oc(-c2cccc(C(F)(F)F)c2)nc2cccc(Cl)c12 | 0.9 | .
CCOc1ccc(OCC)c(NC(=O)CCS(=O)(=O)c2ccc(C)cc2)c1 | -0.3 | 11.0
OCCN(Cc1ccccc1)Cc1c(Cl)cccc1Cl | -2.3 | 4.0
COc1cccc(OC)c1Cn1nnc2c(=O)[nH]c(C(=O)Nc3ccccc3Cl)nc21 | . | 2.0
O=C(NCc1cccnc1)c1ccc(-c2cccs2)s1 | -2.5 | .
O=C(/C=N/O)Nc1ccccc1 | . | -1.0
OCCN1CCSC1=Nc1ccccc1C(F)(F)F | . | -18.0
O=S(=O)(CCCCl)c1nc2ccccc2s1 | 0.8 | 37.0
N#C/C(=C\Nc1cccc(C(F)(F)F)c1)c1nc(-c2cc3cc(Br)ccc3oc2=O)cs1 | -0.9 | .
C=CCC1C(=S)SC(C(=O)OCC)=C1NC(=O)c1cccs1 (stereo not drawn) | -2.0 | -1.0
NC1=NC(=O)/C(=C/c2ccccc2OCc2ccc([N+](=O)[O-])cc2)S1 | 2.1 | .
CCCCCCCCCC(=O)OCC(CO)OC(=O)CCCCCCCCC (stereo not drawn) | 3.3 | .
Cc1ccc(-c2cnc(SCC(=O)N3CCCC3=O)n2C)cc1 | . | -11.0
CCOC(=O)N1CCC(Nc2nc(OC)nc(OC)n2)CC1 | 1.1 | 7.0
c1ccc(CSc2nncn3c2cc2sccc23)cc1 | -0.2 | -6.0
CCOC(=O)CSc1cc(C)c(Cl)cc1C | -0.2 | .

Record cards (already shown). Screens in order: MgrA DNA FP	S aureus helic
`CN(C(=S)NCc1ccco1)c1ccccc1` reads .	-16.0
`CCCSc1ncccc1C(=O)NCc1ccc2c(c1)OCO2` reads -1.9	.
`CC(NC(=O)c1ccc2c(c1)OCO2)c1ccccc1` (stereo not drawn) reads -1.4	12.0
`CC(=O)Nc1ccc(S(=O)(=O)n2nccc2-c2ccc(-c3cccs3)s2)cc1` reads -1.1	.
`COc1ccc(CNC(=O)CSc2nc3ccc([N+](=O)[O-])cc3[nH]2)cc1` reads -2.4	.

(cont.)
Molecule | MgrA DNA FP | S aureus helic
COc1ccc(OCCOC(=O)C23CCC(=O)N2c2ccccc2C(=O)N3C2CC2)cc1 (stereo not drawn) | . | -6.0
CC1=C(C(=O)OCC2CCCO2)C(c2coc3ccccc3c2=O)C2=C(CC(C)(C)CC2=O)N1 (stereo not drawn) | -0.3 | .
O=C(CCN1C(=O)/C(=C2\SC(=S)N(CCC(=O)Nc3nccs3)C2=O)SC1=S)Nc1nccs1 | -0.9 | .
Cc1ccc(S(=O)(=O)CC(=O)Nc2ccc(F)c(F)c2F)cc1 | 0.5 | .
CO/N=C(/C(=O)N[C@@H]1C(=O)N2C(C(=O)O)=C(CSc3nc(=O)c(O)nn3C)CS[C@H]12)c1csc(N)n1 | 0.2&6.7 | .
CC(C)N1C(=O)/C(=C\c2cccs2)SC1=S | -0.9 | 3.0
CCN(C(=O)c1ccc2c(c1)CCO2)c1cccc2ccccc12 | -0.1 | .
N/C(=N\O)c1ccc(OCc2ccccc2F)cc1 | 3.0 | .
CN(C)CCS(=O)c1ccccc1 (stereo not drawn) | -2.1 | 20.0
CCOC(=O)c1ccc(CC2SC(=Nc3ccc(CC)cc3)NC2=O)cc1 (stereo not drawn) | -0.9 | 5.0
CCc1ccc(N2C(=O)CN(CC(=O)OC)C2=S)cc1 | -1.0 | 10.0
Cc1ccc(/C=C/c2onc3c(=O)n(C)nc(C)c23)cc1 | -1.1 | .
CC(=O)N=c1scc(-c2ccccc2)n1-c1ccc(Cl)cc1 | -1.0 | -4.0
Cc1cc(C)nc(Nc2n[nH]c(Cc3ccccc3)n2)n1 | . | 6.0
O=C(Nc1cccc2ccccc12)OCC(F)(F)F | 1.6 | 2.0
CCCCc1nc(SCC(=O)Nc2ncccn2)n[nH]1 | . | 14.0
Cc1cc(=O)c2cccc(C)c2[nH]1 | . | -20.0
C=CCN1C(=O)/C(=C\c2cccc(OC(=O)c3ccco3)c2)SC1=S | . | 7.0
O=C(O)c1ccccc1C(=O)N(Cc1cccnc1)Cc1ccc(Cl)cc1Cl | -2.2 | .
COc1ccccc1C(=O)NC(=O)CSc1nnnn1C | . | -8.0
Cc1ccc2cccc(OC(=O)c3ccc(OCc4c(C)noc4C)cc3)c2n1 | . | -7.0
C1=NCCCC12CCCCC2 | -2.1 | 6.0
CC(=O)N1NC(=Nc2ccccc2)SC1(C)C | -1.4 | 4.0
N#Cc1c(N)cc(N)[nH]c1=S | . | -11.0
Cc1ccc(S(=O)(=O)N2CCC(=O)CC2)cc1 | -1.0 | .
CCOC(=O)c1sc(SCc2ccccc2)c(S(=O)(=O)C(C)C)c1N | 0.2 | .
COCc1cc(=O)[nH]c(SC2CC(=O)N(c3ccc(N4CCOCC4)cc3)C2=O)n1 (stereo not drawn) | -1.2 | .
Cn1nc(C(=O)NCCc2ccsc2)c2c1-c1ccccc1SC2 | 7.5 | 11.0
CCC(=O)O[C@]1(C(=O)CCl)[C@@H](C)CC2C3CCC4=CC(=O)C=C[C@]4(C)[C@@]3(F)[C@@H](O)C[C@@]21C (stereo partly drawn) | 0.8 | .
CC(=O)Oc1ccc(C(=O)Nc2cc(-c3nc4ccccc4[nH]3)ccc2C)cc1 | . | -2.0
CC(C)NC(=O)c1ccc(S(=O)(=O)N2CCCCCC2)cc1 | 2.8 | -3.0
CC1(C)CC(=O)OC(c2ccccc2)(c2ccccc2)C1 | -0.3 | -4.0
O=C(N/N=C/c1ccncc1)N/N=C/c1ccncc1 | -1.7 | .
Cc1nc(-c2ccccc2Cl)cs1 | -1.6 | .
O=S(=O)(/N=C(/Nc1cc(N2CCOCC2)ncn1)c1ccccc1)c1ccccc1 | -0.6 | 8.0
COc1ccc2cc(CCNC(=O)c3ccco3)c(=O)[nH]c2c1 | . | 1.0
CCCn1c(N)c(C(=O)CSc2nnc(-c3ccccc3)o2)c(=O)[nH]c1=O | . | -1.0
Cc1cc2c3c([nH]c2cc1S(=O)(=O)NCc1ccco1)CC(C)(C)CC3=O | . | -13.0
CCn1cc(C(=O)N2CCN(C)CC2)c(=O)c2cc(S(=O)(=O)N(C)C)ccc21 | 1.0 | 14.0
CCC(Sc1nc2c(c(=O)[nH]1)CCCC2)C(=O)Nc1ccccc1OC (stereo not drawn) | . | 15.0
COc1cccc(-c2cn3c(n2)sc2cc(C(=O)NCC4CCCO4)ccc23)c1 (stereo not drawn) | . | 22.0
CC(C)Cc1ccc(C#N)c(SCC(=O)c2ccccc2)n1 | 1.4 | 9.0
Cc1cc(C)cc(NC(=O)C/C(N)=N/O)c1 | . | 10.0
CCCn1c(=O)c2oc(C)cc2n(-c2ccccc2C)c1=O | . | -1.0
Cc1cc(C(=O)CSc2nc(N)cc(=O)[nH]2)c(C)n1C | . | 7.0
CCN(CC)S(=O)(=O)c1ccc(/C=C/C(=O)OCc2nnc(-c3ccccc3)o2)cc1 | . | 16.0
OC1CC(c2ccccc2)NC2(CCCC2)C1 (stereo not drawn) | -0.4 | .
N#Cc1c(N)n(-c2ccc(C(F)(F)F)cc2)c2nc3ccccc3nc12 | 4.7 | 1.0
C=CCc1c(C)[nH]c(=S)[nH]c1=O | 1.0 | .
CN(C)/C=N/N=C(\Cc1nc2ccccc2[nH]1)c1ccccc1 | . | -12.0
CCOc1ccc(S(=O)(=O)N(CC)CC(=O)NCC2CCCO2)cc1 (stereo not drawn) | 6.8 | 10.0
CN1CC=C(/C=C/c2ccc(N3CCCCC3)cc2)CC1 | -0.5 | 13.0
O=C(c1cc2nc(-c3ccco3)cc(C(F)(F)F)n2n1)N1CCCc2ccccc21 | 3.4 | -16.0
N#Cc1c(/N=C/N2CCCC2)sc2c1CCCCC2 | 1.9 | 10.0
N#Cc1ccc(-c2cccnc2)n(CC(=O)NC2CCCCC2)c1=O | 3.6 | -3.0
Cc1csc(NC(=O)C(F)(F)F)c1C(N)=O | -1.1 | .
Cc1nc2c3ccccc3n3c(CCCC(=O)NC(C)C)nnc3n2n1 | . | 10.0
CCCc1cc(C(=O)NCCc2ccc(OC)c(OC)c2)no1 | . | 10.0
O=C(CSc1nc2ccccc2o1)NC(=O)CSc1nc2ccccc2o1 | . | 12.0
O=C(COC(=O)Cc1cn2ccsc2n1)Nc1nc2ccccc2s1 | . | 7.0

More results
Molecule | MgrA DNA FP | S aureus helic
O=C(Nc1ccc2c(c1)OCCO2)C1CC1 | -2.9 | .
CCCN(CCC)S(=O)(=O)c1ccc(C(=O)NCC(=O)O)cc1 | -2.3 | .
COC(=O)c1sccc1NC(=O)c1csc2ccccc12 | 0.6 | 19.0
N=c1ncn(CC(O)CO)c2nc(Br)[nH]c12 (stereo not drawn) | 3.5 | 0.0
COc1ccc(-c2nn(-c3ccccc3)cc2C(=O)N2CCOCC2)cc1 | . | -5.0
CN1CCC23c4ccccc4NC1C21CCN(C)C3Nc2ccccc21 | -2.4 | .
CCOC(=O)Cc1csc(NC(=O)c2ccc3ncsc3c2)n1 | . | 6.0
CCC(C)(C)NC(=O)c1ccc(S(=O)(=O)N2CCCC2)cc1 | 0.4 | 12.0
O=C(CC1OCCN(Cc2ccccc2)C1=O)Nc1cccc(Cl)c1 (stereo not drawn) | . | -11.0
Cc1ccc(C(=O)Nc2sc3c(c2C(=O)O)CCCC3)o1 | -6.3 | 11.0
CCN1c2ccccc2NC2=C(C(=O)CC(C)(C)C2)C1c1ccccc1 (stereo not drawn) | 6.8 | -20.0
COc1ccc(-c2nnc(SC3CCOC3=O)n2-c2ccccc2)cc1 (stereo not drawn) | . | -14.0
O=C1C(=Cc2ccc(F)cc2)C(=O)c2ccccc21 | 1.5 | .

High-throughput results: PubChem BioAssay, ICCB-Longwood Screening Facility, Harvard Medical School
